Assay outcomes: PubChem BioAssay, Fisher Drug Discovery Resource Center
NPYLR7 ag: activates Aedes aegypti NPYLR7 receptor | HEK293T NPYLR7/Galpha15, GCaMP6s calcium fluorescence | activation, % at 10 µM | hit rate 0.15% among 270,000; in the data active means activation above about 40%;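 further: 0% = vehicle and 100% = reference agonist at the receptor; some compounds past the cut are filed as inactive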
NPYLR7 ag max-min: also measured in NPYLR7 ag; calls as there; activation, %; measured here: Max-Min RFU normalised activation; some inactives read as strong as hits;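 span of the calcium signal over five minutes; 0% = vehicle and 100% = native peptide agonist; compound fluorescence can raise it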
An asterisk follows results filed as active. An excerpt; count on the stated rates, not on these rows.

cpd	Molecule	NPYLR7 ag	NPYLR7 ag max-min
1	CC1(C(=O)NC2CCN(Cc3ccccc3)CC2)CCN1CCc1ccccc1 (configuration not stated)	6	-1
2	CCCCCCc1ccc(C(=O)N(CCCOC)CC(=O)N(CCc2ccc(OC)c(OC)c2)Cc2sccc2C)cc1	2	4
3	COC(=O)c1cc2c(=O)n(-c3cccc(OC(F)(F)F)c3)ccc2nc1C	-5	-6
4	CCOC(=O)c1nn(CCc2ccccc2)c2c1CN(C(=O)C1CC(=O)OC13CCCCC3)CC2 (configuration not stated)	13	3
5	O=C(c1csc(CSc2nnc(-c3ccncc3)n2-c2cccc(Cl)c2)n1)N1CCc2ccccc2C1	-5	-2
6	Cc1ccccc1-n1cc(CN(C)C(=O)CN2CC(=O)NC2=O)cn1	14	13
7	Cc1cc2c(cc1-c1nccn1C(C)CCn1cccn1)OCCO2 (configuration not stated)	-2	-7
8	O=C(Cc1ccc(Cl)cc1)NCCc1csc2nc(-c3ccc(F)cc3)nn12	4	3
9	O=C(Cc1ccc(F)cc1)NCCCn1nc(-c2ccccc2)ccc1=O	2	1
10	COC(=O)c1ccc(COC(CN2CCN(C(=O)c3cccn3C)CC2)c2cccc(OC)c2)cc1 (configuration not stated)	4	2

Retrieved by compound from the entries so far (four):
cpd	Molecule	NPYLR7 ag	NPYLR7 ag max-min
6	Cc1ccccc1-n1cc(CN(C)C(=O)CN2CC(=O)NC2=O)cn1	14	13
2	CCCCCCc1ccc(C(=O)N(CCCOC)CC(=O)N(CCc2ccc(OC)c(OC)c2)Cc2sccc2C)cc1	2	4
4	CCOC(=O)c1nn(CCc2ccccc2)c2c1CN(C(=O)C1CC(=O)OC13CCCCC3)CC2 (configuration not stated)	13	3
1	CC1(C(=O)NC2CCN(Cc3ccccc3)CC2)CCN1CCc1ccccc1 (configuration not stated)	6	-1

(list continues)
cpd	Molecule	NPYLR7 ag	NPYLR7 ag max-min
11	O=c1[nH]c(-c2cnccn2)nc2cc(F)c(F)cc12	-1	-1
12	O=C(NCc1cccnc1)C1CCN(c2ccccc2)C1=O (configuration not stated)	2	0
13	COc1ccc(-c2cnc(-c3ccc(CNC(=O)c4ccc(C(F)(F)F)c(F)c4)cc3)[nH]2)cc1	5	7
14	O=c1cc(CN2CCN(Cc3cc4c(cc3O)CCC4)CC2)nc2sccn12	-6	-6
15	CC(NC(=O)c1ccco1)C(=O)OCC(=O)N1CCC(c2ccccc2)=N1 (configuration not stated)	6	0
16	CCOCCCNCc1cnc(SC)nc1N1CCN(c2ccccc2F)CC1	3	-2
17	CN1CC2(CCN(C(=O)c3cn(CCN4CCNCC4)nn3)C2)OC1=O (configuration not stated)	-1	-6
18	COc1ccc(-c2cc3c(=O)n(CC(=O)Nc4c(C)cc(C)cc4C)ccn3n2)cc1OC	13	10
19	Cc1cccc(CN2CCN(Cc3cn(C)nc3-c3ccccc3)CC2CCO)n1 (configuration not stated)	8	5
20	c1ccc(N=C2NN=C(c3ccc4c(c3)CCO4)CS2)cc1	-4	-4

A draw from above in order of molecular weight, lowest first.
cpd	Molecule	NPYLR7 ag	NPYLR7 ag max-min
20	c1ccc(N=C2NN=C(c3ccc4c(c3)CCO4)CS2)cc1	-4	-4
17	CN1CC2(CCN(C(=O)c3cn(CCN4CCNCC4)nn3)C2)OC1=O (configuration not stated)	-1	-6
15	CC(NC(=O)c1ccco1)C(=O)OCC(=O)N1CCC(c2ccccc2)=N1 (configuration not stated)	6	0
16	CCOCCCNCc1cnc(SC)nc1N1CCN(c2ccccc2F)CC1	3	-2

Other records.
cpd	Molecule	NPYLR7 ag	NPYLR7 ag max-min
21	CCOC(=O)CN(C(=O)OC)[C@@H]1C[C@@H]2CO[C@H](C(C)C)C[C@@H]2C1	24	22
22	O=c1oc2ccc([N+](=O)[O-])cc2cc1-c1nnc(Nc2ccc(Cl)cc2Cl)s1	-1	-4
23	CC1CCN(C(=O)CSc2ccc(-c3cccc([N+](=O)[O-])c3)nn2)CC1	0	-1
24	COc1cc2c(cc1OC)C(C(C)N)N(Cc1ccccc1F)CC2 (configuration not stated)	1	1
25	COCc1cc(N2CC[C@@H](c3ccc4ccccc4c3)[C@H](O)C2)ncn1	3	1
26	O=C(OCCN1CCOC1=O)c1cc(Cl)c2ccccc2c1O	-1	-2
27	CCc1ccc(S(=O)(=O)NCCc2csc3nc(-c4cccs4)nn23)cc1	-1	-2
28	Cc1nc2n(n1)C(=O)C(C(c1ccco1)N1CCC(C)CC1)S2 (configuration not stated)	-5	-5
29	Cc1ccccc1Oc1ncccc1CNC(=O)CCn1cncn1	1	0
30	CCC(=O)NCc1ccnc(Oc2cc(C)cc(C)c2)c1	2	1
31	CNC(=O)Cn1cc(NC(=O)c2cccc(CN3CC=CCC3)c2)cn1	0	24
32	Nc1cccc(-c2cccc(C(=O)O)c2)n1	2	1
33	COc1ccc2[nH]c3c(c2c1)CCN(C(=O)c1cc(-c2ccc(Cl)cc2)oc1C)C3c1ccc(COC(C)=O)o1 (configuration not stated)	22	13
34	CCNC(=O)CC(c1ccccc1)c1ccc(Cl)cc1 (configuration not stated)	1	-2
35	O=C(c1ccc(C2CCCN2)s1)N(Cc1ccccc1)Cc1nccs1 (configuration not stated)	6	4
36	CC(=O)c1ccc(NC(=O)N2CCc3onc(-c4ccccc4F)c3C2)cc1	3	0
37	Cn1nc([N+](=O)[O-])c(I)c1I	3	0
38	COc1cc(C2NC(=O)NC(C)=C2C(=O)Nc2ccc(Cl)cc2)cc(OC)c1OC (configuration not stated)	-10	-13
39	CC(C)CN1C(=O)N(Cc2ccccn2)C(=O)C12CCN(Cc1ccc(CO)o1)CC2	10	-2
40	CC1CCN(c2cc(Cl)nc(SCc3ccc(C(=O)NCc4ccco4)cc3)n2)CC1	-3	1

Look-ups from the entries so far:
O=C(c1ccc(C2CCCN2)s1)N(Cc1ccccc1)Cc1nccs1 (configuration not stated) in NPYLR7 ag max-min: 4
COc1cc(C2NC(=O)NC(C)=C2C(=O)Nc2ccc(Cl)cc2)cc(OC)c1OC (configuration not stated) in NPYLR7 ag max-min: -13
CC(=O)c1ccc(NC(=O)N2CCc3onc(-c4ccccc4F)c3C2)cc1 in NPYLR7 ag max-min: 0

Going on with the list:
cpd	Molecule	NPYLR7 ag	NPYLR7 ag max-min
41	CCN1C(=O)COc2ccc(C(=O)Cn3c(=O)cc(C)c4c(C)nn(-c5ccccc5)c43)cc21	1	2
42	CCOc1cc(CNC(=O)C2=C(Cl)CCCC2)ccn1	-14	-13
43	COCCNC(=O)Nc1cnn(-c2ccccc2S(C)(=O)=O)c1	10	7
44	CCc1nc(C2CCCN2C(=O)C2CC(=O)Nc3ccccc32)no1 (configuration not stated)	-1	0
45	CC(Oc1ccccc1)C(=O)NC1CCOc2ccccc21 (configuration not stated)	-2	-5
46	CNC(=O)CN(C(=O)c1ccccc1)[C@H]1C[C@H]2CCOC[C@H]2C1	1	10
47	COC(=O)[C@@H]1C[C@@H](N(C)C)CN1Cc1cccc(Cn2cccn2)c1	-3	-4
48	Cc1ccc(Oc2ncccc2CNC(=O)Cn2nc(C)c(C)c2C)cn1	24	9
49	Cc1nn(CC(=O)NC2CC2)c(=O)c2cc3occc3n12	-6	-3
50	CCCc1ccc2oc(C(=O)N3CCN(C(=O)c4cccs4)CC3)c(C)c2c1	4	-1
51	CCOC(=O)N(C)c1c(CC)nc2c(OCCn3cccc3)cccn12	1	-9
52	Cn1c(=O)[nH]c(=O)c2c1nc(N1CCN(Cc3ccccc3)CC1)n2Cc1ccccc1Cl	0	-2
53	CN(C)c1ccc(/C=C/c2cc(C(F)(F)F)[nH]c(=O)n2)cc1	24	18
54	CC1(C)O[C@@H]2C[C@@](OCc3ccc(F)cc3)(C(=O)NCCN3CCCC3)CC(OCc3ccc(C#N)cc3)[C@@H]2O1 (some centres not stated)	11	13
55	COCCCNC(=O)Cn1ccn2nc(-c3ccc(Cl)cc3)cc2c1=O	5	5
56	Cc1ccc(C)c(CN2CCCn3cccc3C2c2ccc(F)cc2F)c1 (configuration not stated)	18	15
57	COCCNC(=O)c1ccc(CSc2nnc(-c3ccc(C)cc3)n2-c2ccccc2C)cc1	24	36
58	CCS(=O)(=O)Oc1cc(CN(C(=O)Nc2ccc(Cl)cc2)C(C)C)ccc1OC	-5	6
59	CSc1ccc(CN2CCC2(C)C(=O)Nc2ccccc2Cc2ccccc2)cc1 (configuration not stated)	1	0
60	COCc1cc(C)nc(N/N=C\c2ccccc2OCc2ccc(Cl)cc2Cl)c1C#N	1	9
61	COc1ccc(CCN(Cc2ccco2)C(=O)CN(C(=O)Nc2ccc(C)c(C)c2)C(C)C)cc1OC	-4	0
62	Cn1c(-c2ccc(-c3nccn3CCn3cccn3)o2)nc2ccccc21	6	1
63	CN(Cc1ccc2c(c1)OCCO2)C(=O)CNC(=O)c1ccc(C(F)(F)F)cc1	0	7
64	CCOC(=O)C1CCN(C(=O)CC(c2ccc(Cl)cc2)c2c[nH]c3c(CC)cccc23)CC1 (configuration not stated)	6	17
65	O=S(=O)(Nc1ccccc1)N1CCCCC1	17	7
66	CCCn1nnc(NC(=O)C=Cc2ccco2)n1	0	0
67	C=CCN(CC(=O)N1CCc2sccc2C1c1ccc(Cl)cc1Cl)C(=O)CCC(=O)OCC (configuration not stated)	-8	-11
68	C=C(C)Cn1c(N2CCN(Cc3ccc(F)cc3)CC2)nc2c1c(=O)[nH]c(=O)n2C	-9	-12
69	O=C(C1=COCCO1)N(CCn1cccn1)c1nc2c(Cl)cccc2s1	-13	-17
70	COc1cc(OC)nc(NC(=O)Nc2cccc(Cl)c2)n1	-7	-13
71	Cc1cccc(CSc2nc3c(c(=O)n2-c2ccccc2)SCC3)c1	-1	-3
72	O=C(CSc1nnc(-c2cccs2)n1C1CC1)NC1CC1	1	7
73	OCc1cc(-c2ccc3ccccc3n2)ccc1F	1	-4
74	CCS(=O)(=O)c1nc(S(=O)(=O)c2ccc(C)cc2)c(NCC(C)C)s1	3	4
75	Cc1ccc(-c2cc(=O)n(CC(=O)N(Cc3ccccc3)c3ccccc3)cn2)cc1	-5	-7
76	NS(=O)(=O)c1cccc(NC(=O)CN2CCC(Cc3ccccc3)CC2)c1	5	4
77	COc1cc(OC)c2[nH]c(C(=O)N(C)C(C)c3ccc(F)c(F)c3)cc2c1 (configuration not stated)	6	6
78	CC(=O)CC1(O)C(=O)N(CCOc2ccccc2Cl)c2ccccc21 (configuration not stated)	-5	-5
79	Cc1cc2nc(-c3cccs3)cc(-c3nnc(SCc4c(F)ccc(C)c4Cl)n3C(C)C)c2cc1C	0	10
80	CCOc1ccc(NC(=O)N2CCc3cc(OC)c(OC)cc3C2c2ccccc2)cc1 (configuration not stated)	23	14

Complete entries, quoted from the list. Screens in order: NPYLR7 ag | NPYLR7 ag max-min
COc1cc(OC)c2[nH]c(C(=O)N(C)C(C)c3ccc(F)c(F)c3)cc2c1 (configuration not stated) is entered as 6 | 6
CCS(=O)(=O)c1nc(S(=O)(=O)c2ccc(C)cc2)c(NCC(C)C)s1 is entered as 3 | 4
O=C(CSc1nnc(-c2cccs2)n1C1CC1)NC1CC1 is entered as 1 | 7
CC(=O)CC1(O)C(=O)N(CCOc2ccccc2Cl)c2ccccc21 (configuration not stated) is entered as -5 | -5
Cc1cccc(CSc2nc3c(c(=O)n2-c2ccccc2)SCC3)c1 is entered as -1 | -3

Other results:
cpd	Molecule	NPYLR7 ag	NPYLR7 ag max-min
81	CCc1cccc2c(C(CC(=O)N3CCN(c4cccc(C(F)(F)F)c4)CC3)c3cccc(F)c3)c[nH]c12 (configuration not stated)	1	3
82	COc1cc(C)c(C)cc1S(=O)(=O)Nc1ccc(-c2ccc(N3CCOCC3)nn2)cc1	-1	-2
83	O=C(CCC1CCN(C(=O)NC2CCS(=O)(=O)C2)CC1)NCc1ccc(F)cc1 (configuration not stated)	7	6
84	COc1cc2c(cc1OC)C1CN(C(=O)c3cc(F)ccc3Cl)CC(=O)N1CC2 (configuration not stated)	-3	1
85	CC(C)c1cccc(-c2cc(NCc3cccnc3)nc3[nH]ccc23)n1	0	-4
86	COc1ccc(CNC(=O)c2cncn2-c2cccc(-c3ccc(OC)c(OC)c3)c2)c(OC)c1	4	4
87	CSc1nnc2nc(C)cc(C)n12	1	6
88	Cc1ccccc1NCc1ccc(C(=O)OCC(=O)C(C)(C)C)cc1	8	11
89	Cc1c(O)cccc1C(=O)NCc1cccnc1N(C)C1CCCCC1	-5	-6
90	COc1ccc(C)cc1CN(C)CCC(=O)Nc1cccc(F)c1	1	4
91	CCOC(=O)N1CCC(N2CCCC(CCC(=O)Nc3ccc(OC)c(Cl)c3)C2)CC1 (configuration not stated)	14	-1
92	CC(C)NC(=O)[C@@]1(OCc2ccccc2F)CC(OCC2CC2)[C@@H]2OC(C)(C)O[C@@H]2C1 (some centres not stated)	18	14
93	Cc1ccccc1C(=O)OCc1cc(-c2ccc3c(c2)OCO3)on1	-2	-3
94	CCNc1sc2c(O)cc(=O)[nH]c2c1C#N	3	2
95	CC(NC(=O)c1ccccc1N(C)c1ccccc1)C1CCCO1 (configuration not stated)	3	-1
96	CCc1nc2ccc(C(=O)Nc3cccc(NS(C)(=O)=O)c3)cn2c1N(CC)Cc1cccc(Br)c1	14	14
97	CCCNC(=O)N(Cc1nccn1Cc1c(F)cccc1Cl)C1CC1	5	7
98	Cc1cccc(CN2CCOC(CCCC(C)C)C2)n1 (configuration not stated)	-3	-6
99	O=C(Nc1nc(-c2ccco2)c(-c2ccco2)s1)C1CC(=O)N(C2CCCC2)C1 (configuration not stated)	2	0
100	O=C(O)[C@H]1C[C@@H](C(=O)NC2CC2)CN(C(=O)c2cccc(Cl)c2Cl)C1	3	1
101	Cc1nc(C)c(Cc2nc(CC(=O)Nc3ccccc3)no2)c(=O)[nH]1	-1	-3
